Screens (PubChem)
SARS PLpro yeast: inhibitors of SARS-CoV papain-like protease in yeast; AID 485353; hit rate 0.19% among 330,000; Potency, µM (doses to about 32.9 µM), for inactives: at the top dose activity, positive = growth rescue; S. cerevisiae expressing SARS-CoV PLpro, growth rescue; control for the full effect not named in the record; note: 0% is about no effect; nearly all actives have a fitted effect of over 55% in size; growth read by luminescence after 48 h
NS1 function inh: influenza NS1 inhibition; Potency, µM (series often up to 46.1 µM), for the others: at the top dose activity, positive = more growth; AID 2326; hit rate 0.4% among 270,000; S. cerevisiae slowed by influenza A NS1, growth recovery by OD600; note: actives are rising curves; nearly all actives have a fitted effect of over 50% in size
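OD600 was taken as the measure of yeast growth restored by compound in an NS1-expressing S. cerevisiae strain. Cells had been washed out of glucose medium and diluted 1:100 into galactose -URA medium, pH 6.0.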
Cruzain inh noDet: blocks cruzain activity in detergent-free assay; purified cruzain, Z-FR-AMC fluorescence, no detergent; hit rate 2.3% among 200,000; P25779; Potency, µM, without a hit: max response, negative = inhibition, usual class: inhibitors; active = well fitted curve in the direction sought with a large enough effect; inconclusive = small, poorly fitted or top-dose-only effect, or another doubt; inactive = no such curve, though single readings can be large; an effect the other way counts as inactive or inconclusive;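 note: plate controls were enzyme without inhibitor for no effect and buffer without enzyme for full effect; nearly all actives have a fitted effect of over 40% in size; top concentration of the series not given in the record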
Target sequence (P25779 123-467 limits assumed): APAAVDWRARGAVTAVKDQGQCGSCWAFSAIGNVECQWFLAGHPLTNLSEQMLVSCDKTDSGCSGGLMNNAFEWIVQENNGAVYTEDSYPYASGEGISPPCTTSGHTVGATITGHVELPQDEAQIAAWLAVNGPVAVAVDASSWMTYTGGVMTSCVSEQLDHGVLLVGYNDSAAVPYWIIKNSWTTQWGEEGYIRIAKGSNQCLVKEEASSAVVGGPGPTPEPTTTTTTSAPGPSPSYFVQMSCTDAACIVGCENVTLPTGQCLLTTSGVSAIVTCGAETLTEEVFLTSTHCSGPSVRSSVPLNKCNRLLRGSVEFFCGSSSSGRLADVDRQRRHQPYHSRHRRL
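Purified cruzain at 1.5 nM, pre-incubated 15 min with compound at room temperature in 100 mM sodium acetate pH 5.5, 5 mM DTT, 0.00005% Triton X-100. Reaction started with 2 uM Z-FR-AMC; AMC fluorescence increase over 60 s gives rate.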
Lassa entry inh: inhibitors of Lassa virus binding or cell entry; Potency, µM (doses to about 37.9 µM), for the others: at the highest dose activity change, negative = inhibition, actives largely listed as inhibitors; Lassa virus pseudotype entry inhibition, cell reporter; control for the full effect not named in the record; hit rate 1.2% among 300,000; active means well fitted inhibition curve with a large enough effect; inconclusive means small, poorly fitted or top-dose-only effect, or effect the other way; inactive means flat fitted curve, though single readings scatter; tested in HEK293 cells; note: % is set by controls: 0 for no effect and ±100 for the full control effect; nearly all actives have a fitted effect of over 50% in size; luciferase read-out
RE007 growth inh: less growth of the S. pombe RE007 Vpr strain; AID 651644; hit rate 0.21% among 360,000; S. pombe RE007 Vpr strain, BacTiter-Glo ATP luminescence, 24 h; control for the full effect not named in the record; Potency, µM (doses to about 92.2 µM), without a hit: at the top dose activity change, negative = less growth; active = well fitted falling curve with a large enough effect; inconclusive = small, poorly fitted or top-dose-only effect; inactive = no such curve, though single readings can be large or run the other way;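 note: % is set by controls: 0 for no effect and ±100 for the full control effect; nearly all actives have a fitted effect of over 50% in size; the assay follows cell death caused by Vpr and the record does not say whether a fall means rescue or toxicity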
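Fission yeast strain RE007, carrying one chromosomally integrated HIV-1 vpr copy, was seeded at OD 0.01 in PMG+AL medium with 23 nL pinned compound. After 24 h at 30 °C and 99% humidity, viability was read by BacTiter-Glo luminescence.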
MARV entry inh: blocks Marburg virus binding to or entry into cells | Marburg virus pseudotyped entry inhibition, cell reporter; control for the full effect not named in the record; about a third of the inactives were read at about 46 µM | AID 540276 | Potency, µM (top dose mostly 37.8 µM), for the others: at the top dose activity change, negative = inhibition, hits mostly inhibitors | hit rate 1.8% among 300,000; active = well fitted inhibition curve with a large enough effect; inconclusive = small, poorly fitted or top-dose-only effect, or effect the other way; inactive = flat fitted curve, though single readings scatter; tested in HEK293 cells; about a fifth of its hits are not listed in these tables; note: % is set by controls: 0 for no effect and ±100 for the full control effect; luciferase read-out
StopGo reporter: lowers the luciferase signal of an FMDV 2A StopGo reporter. Potency, µM (doses to about 57.9 µM), inactives show at the highest dose signal change, negative = less light. hit rate 1.2% among 410,000. human cells with a luciferase reporter of 2A StopGo recoding; control for the full effect not named in the record; active = well fitted falling curve with a large enough effect; inconclusive = small, poorly fitted or top-dose-only effect; inactive = no such curve, though single readings can be large or run the other way; tested in HEK293T cells; note: % is set by controls: 0 for no effect and ±100 for the full control effect; nearly all actives have a fitted effect of over 45% in size; luciferase light after 4 h
Cruzain Triton: blocks cruzain activity in presence of Triton detergent | P25779 | purified cruzain, Z-FR-AMC fluorescence, 0.01% Triton | Potency, µM, without a hit: max response, negative = inhibition, usual class: inhibitors | hit rate 0.43% among 200,000; active = well fitted curve in the direction sought with a large enough effect; inconclusive = small, poorly fitted or top-dose-only effect, or another doubt; inactive = no such curve, though single readings can be large; an effect the other way counts as inactive or inconclusive;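 note: plate controls were neutral wells for no effect and buffer without enzyme for full effect; nearly all actives have a fitted effect of over 40% in size; top concentration of the series not given in the record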
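Cruzain (1.5 nM) preincubated 15 min at RT with compound in 100 mM sodium acetate pH 5.5, 5 mM DTT, 0.01% Triton X-100. Reaction started with 2 uM Z-FR-AMC; AMC fluorescence (ex 360/em 450 nm) change over 60 s gave rate.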
An asterisk follows results filed as active; ? = inconclusive; . = no result given; & = joins results of further samples; [ ] = remark or other dose. Unless noted, calls come from the whole dose curve; as a rule, active means well fitted rising curve with a large enough effect; inconclusive means small, poorly fitted or top-dose-only effect; inactive means no such curve, though single readings can be large or run the other way. Potency is the fitted concentration of half-maximal effect.

SMILES	SARS PLpro yeast	NS1 function inh	Cruzain inh noDet	Lassa entry inh	RE007 growth inh	MARV entry inh	StopGo reporter	Cruzain Triton
CC1C(=O)N2CCCc3cc(S(=O)(=O)N(C)Cc4ccccc4)cc1c32 (stereo not given)	7%	26%	.	.	17%	.	-7%	.
O=C(c1cccs1)N1CCCc2ccccc21	-6%	-56%	-2%	-4%	-14%	4%	-2%	2.8%
Cc1cc(C)c(C#N)c(SCC(=O)Nc2ccc(S(=O)(=O)Nc3onc(C)c3C)cc2)n1	2%	-23%	-8%	0%	-2%	?	-23%	-3.0%
Cc1ccc(Oc2ccccc2NC(=O)C2=COCCO2)cc1	0%	.	.	-21%	14%	-2%	-19%	.
O=C(c1ccco1)N1CCCC(c2nc3c(nnn3Cc3ccccc3)c(=O)[nH]2)C1 (stereo not given)	-2%	3%	.	4%	-11%	1%[46.1 µM]	-22%	.
O=C(Cc1n[nH]c(=O)c2ccccc12)OCC(=O)N(Cc1ccccc1)Cc1ccccc1	0%	-1%	.	.	22%	.	?	.
COc1cccc(C2C(C(=O)c3cccs3)=C(O)C(=O)N2CCN2CCOCC2)c1 (stereo not given)	2%	6%	.	.	-8%	.	27%	.
CC1CN(c2oc(Cc3cccc4ccccc34)nc2C#N)CC(C)O1 (stereo not given)	-2%	-76%	?	-42%	-27%	?	-27%	-5.4%
CCOc1ccc(NC(=O)CCN2CCN(S(=O)(=O)c3cc(Cl)ccc3OC)CC2)cc1	0%	-14%	?	-1%	11%	14%&14%	?	2.3%
O=C(CCCCCCN1C(=O)c2ccccc2C1=O)Nc1nccs1	-4%	11%	-1%	-10%	-2%	-12%[46.1 µM]	?	-6.4%
CCOc1ccc(N=C2NC(=O)S/C2=C\c2ccc(OC)cc2)cc1	-1%	-5%	-12%	0%	-5%	12%	.	-7.2%
Cn1c(/N=C/c2ccc3c(c2)OCO3)nc2ccccc21	6%	9%	10%	1%	-6%	16%	.	-6.5%
CN(C)C(=O)c1cn(-c2ccccc2)nc1-c1cccs1	13%	1%	2%	-19%	-10%	15%	4%	3.4%
O=C(Nc1c(C(=O)N2CCN(c3ccccc3)CC2)oc2ccccc12)c1ccccc1F	.	.	-14%	-26%[46.1 µM]	.	.	-4%	-2.6%
CN(CC(=O)Nc1ccccc1Br)C(=O)c1ccncc1	4%	3%	.	?	66%	?	16%	.
O=C(c1ccc(Oc2ccc([N+](=O)[O-])cc2Cl)cc1)N1CCCC1	1%	14%	.	-17%	20%	-14%[46.1 µM]	-14%	.
CCCC1CC(c2csc(N)n2)CCO1 (stereo not given)	-2%	0%	-1%	3%	-2%	0%	-22%	0.7%
CC1=C(c2ccc(C)cc2)S(=O)(=O)N(Cc2ccc(C(=O)Nc3ccc(C)c(F)c3)cc2)C1=O	.	.	20µM*	?	.	.	?	-2.0%
CN1C(=O)/C(=C/c2ccc(-c3ccccc3[N+](=O)[O-])o2)SC1=Nc1ccc(Cl)c(C(=O)O)c1	4%	?	-11%	-2%	-16%	?	14%	?
O=c1[nH][nH]c(C(F)(F)F)c1C=Nc1ccccc1	2%	-2%	-6%	4%	22%	-11%	0%	0.5%
COc1ccc(NC(=O)Cc2ccccc2)cn1	1%	.	.	?	28%	6%[46.1 µM]	14%	.
CCOC(=O)C1=C(C)NC2=C(C(=O)CCC2)C1c1ccsc1 (stereo not given)	.	2%	1%	.	.	-3%	.	-1.8%
Cc1nnc(N/N=C/c2ccc(-c3ccc(Br)cc3)o2)n1N	-14%	.	.	-2%	-30%	16%[46.1 µM]	-18%	.
O=C(c1ccccc1)N1CCC(CC2CC(c3ccc(Cl)cc3)=NO2)(C(=O)NCC2CCCCC2)CC1 (stereo not given)	-3%	16%	.	.	-10%	.	-10%	.
CC1Cc2nc(SCC(=O)N3CCN(c4ccccc4)CC3)n(CCc3ccccc3)c(=O)c2S1 (stereo not given)	-10%	?	-8%	.	0%	.	3%	3.7%
SMILES	SARS PLpro yeast	NS1 function inh	Cruzain inh noDet	Lassa entry inh	RE007 growth inh	MARV entry inh	StopGo reporter	Cruzain Triton
Cc1cc(NC(c2cccnc2)c2c(C)[nH]c3ccccc23)no1 (stereo not given)	2%	-3%	-10%	-8%	-1%	-12%	2%	-3.2%
O=C1CCC(C(=O)N2CCC(CO)(Cc3ccc(Cl)cc3)CC2)=NN1	2%	7%	.	3%[46.1 µM]	-1%	9%[46.1 µM]	-5%	.
CSc1ccc(-c2sc(Nc3cccc4ccccc34)n[n+]2-c2ccccc2)cc1	-4%	5%	.	.	-9%	.	10%	.
CS(=O)(=O)N(CCC#N)Cc1ccc(/C=C2\C(=O)Nc3ccccc32)o1	3%	.	.	10%	36%	-16%[46.1 µM]	-1%	.
COc1cccc(-n2ccn(CC(=O)c3ccc(F)cc3)c(=O)c2=O)c1	.	.	-3%	5%[46.1 µM]	.	.	9%	-1.7%
O=C(c1ccc(=O)[nH]c1)N1CCN(S(=O)(=O)c2cc(C(F)(F)F)ccc2Cl)CC1	1%	6%	.	-1%	17%	28%[46.1 µM]	-18%	.
O=C(O)c1ccc2c(c1)C(=O)N(N1C(=O)c3ccccc3C1=O)C2=O	2%	2%	-1%	4%	6%	7%	0%	-0.3%
COc1ccc(S(=O)(=O)N(Cc2ccccc2)c2ccccc2C(=O)Nc2ccccc2C(=O)NCc2ccco2)cc1	-9%	9%	-19%	-15%	23%	?	12%	1.6%
COc1cccc(/C=C2\SC(=S)N(CCCC(=O)N3CCCCC3)C2=O)c1	-5%	4%	.	.	5%	.	-15%	.
COc1ccc(S(=O)(=O)N2CCOCC2)cc1NC(=O)CN1C(=O)NC2(CCCCC2C)C1=O (stereo not given)	-3%	.	.	-24%	-5%	18%	4%	.
CCc1cccc(C)c1NC(=O)c1ccoc1C	-2%	2%	-2%	4%	14%	-1%	-5%	-1.1%
O=C(N/N=C/c1cccs1)c1cnccn1	-5%	-11%	8%	10%	19%	?	33%[activator]	-4.4%
CCC(C(=O)Nc1c(C)cc(C)cc1C)N1CCCCCC1 (stereo not given)	-8%	4%	.	.	-23%	.	1%	.
O=C(c1cc(-c2ccc(O)cc2)on1)N1CCc2ccccc2C1	-24%	-99%	-13%	.	7%	.	34%[activator]	-6.1%
O=C(NCc1ccc2c(c1)OCO2)c1ccc(CS(=O)(=O)c2cccc(C(F)(F)F)c2)o1	-18%	7%	?	8%	8%	?	-18%	-3.1%
COc1cc2c(cc1OC)[C@H](C)N(C(=O)NCc1ccccc1)CC2	0%	-8%	.	-15%	1%	?	-10%	.
CCOc1cc(C(=O)OCc2cc(=O)n3c(C)csc3n2)cc(OCC)c1OCC	.	.	-1%	-4%[46.1 µM]	.	.	-12%	-0.3%
CC(C)(CSc1nncn1N)NS(=O)(=O)c1ccc(Cl)cc1	0%	6%	1%	1%	18%	14%	-16%	7.8%
O=C(NCCCN1CCOCC1)C(c1ccccc1)c1ccccc1	2%	-4%	.	?	4%	-9%	-9%	.
O=C1NC(=O)N(CCc2ccc(F)cc2)C(=O)/C1=C\C=C\c1ccccc1	2%	.	.	.	-2%	9%[46.1 µM]	10µM*	.
CC(C)[C@H](NC(=O)N1CC(=O)Nc2ccccc21)C(=O)N1CCC(C(=O)O)CC1	-2%	0%	.	21%[46.1 µM]	-11%	?	-10%	.
Cc1nnc(SCC(=O)NCc2cccs2)n1-c1ccccc1	-1%	6%	12%	-3%	20%	6%[46.1 µM]	1%	7.2%
OC1CCN(Cc2cn(Cc3ccccc3)nc2-c2cc3ccccc3o2)CC1	0%	4%	.	-1%	-8%	?	4%	.
Cc1cc(SCC(=O)NCCC2=CCCCC2)nc2ccccc12	-20%	-30%	?	-3%	18%	?	-19%	-9.5%
CCOC(=O)c1ccccc1NC(=O)CSc1ccccc1	4%	-11%	-19%	14%	-19%	8%	-18%	-7.0%
SMILES	SARS PLpro yeast	NS1 function inh	Cruzain inh noDet	Lassa entry inh	RE007 growth inh	MARV entry inh	StopGo reporter	Cruzain Triton
CCCCCC1CC(=O)C=C(C)C1C(=O)OC (stereo not given)	2%	-3%	.	27%[46.1 µM]	6%	23%[46.1 µM]	-17%	.
COc1ccc(CC(=O)NCc2n[nH]c(=S)n2-c2ccc(F)cc2)cc1	1%	-2%	.	5%	-9%	-3%	-12%	.
O=C(Cn1c(=O)c(C(F)(F)F)nc2ccccc21)Nc1ccc(Br)cc1F	.	.	1%	15%[46.1 µM]	.	.	-13%	0.7%
S=c1nc[nH]c2c1[nH]c1ccc(Cl)cc12	0%	8%	.	6%[46.1 µM]	10%	-13%[46.1 µM]	23%	.
CCN1CCCC1CNC(=O)C(=O)Nc1cccc(OC)c1 (stereo not given)	12%	7%	24%	4%	0%	14%	-7%	0.0%
O=C1CC2(CCN(C(=O)c3ccc(Br)cc3)CC2)Oc2ccccc21	-1%	.	.	-16%	-18%	?	?	.
COC(=O)CCCC(=O)NC1CCCc2c1cnn2-c1ccc(F)cc1F (stereo not given)	0%	12%	.	.	-5%	.	-5%	.
CCNc1nc(N2CCCC2)nc(N2CCCC2)n1	-1%	-7%	.	-7%[46.1 µM]	-12%	?	-21%	.
CC(NC(=O)Cc1ccccc1)C1COc2ccccc2O1 (stereo not given)	0%	-6%	.	-6%	0%	-16%	-5%	.
Cc1cc(C(=O)CSc2nc3ccccc3c(=O)[nH]2)c(C)n1CC1CCCO1 (stereo not given)	-4%	0%	.	-25%	6%	?	?	.
Cc1ccc(C)c(SCc2nc3sc(C(=O)O)c(C)c3c(=O)[nH]2)c1	1%	8%	.	17%	-4%	3%[46.1 µM]	9%	.
COc1ccc(N2CCN(CC(=O)Nc3cc(C)on3)CC2)cc1	5%	-1%	-4%	1%	4%	6%	7%	2.5%
N#Cc1c(SCC(N)=O)nc2c(c1-c1ccncc1)CCCC2	2%	3%	.	1%[46.1 µM]	0%	15%[46.1 µM]	-1%	.

An unsorted share of the library (roughly 4.7% active in at least one column).
